ClpP mod = qHTS Assay for Activators of ClpP | purified B. subtilis ClpP, FRET peptide cleavage, 20 min | Potency, µM (highest dose often 57.5 µM), inactives show at the top dose activity change, negative = active | actives 1.9% (n = 340,000) | AID 651965, 2013; active = well fitted falling curve with a large enough effect; inconclusive = small, poorly fitted or top-dose-only effect; inactive = no such curve, though single readings can be large or run the other way; also: potency is read from the fitted curve at half-maximal effect; the source files actives as falling curves though it sought activators and does not explain the sign; nearly all actives have a fitted effect of over 65% in size; many hits overshoot -100%
Target sequence (P80244 whole entry, looked up): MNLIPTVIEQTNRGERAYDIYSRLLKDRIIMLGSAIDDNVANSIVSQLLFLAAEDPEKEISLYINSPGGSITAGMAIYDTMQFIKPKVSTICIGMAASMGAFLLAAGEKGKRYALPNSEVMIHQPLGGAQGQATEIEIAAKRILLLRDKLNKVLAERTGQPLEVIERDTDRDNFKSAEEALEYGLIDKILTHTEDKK
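Buffer: 100 mM Tris/HCl pH8, 100 mM KCl, 0.05% low protease BSA, 2.5% glycerol, 0.01% Tween-20. ClpP 10 microg/mL final; 20 min RT; delta FRET normalized to ADEP and DMSO controls.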
Menin MLL FP FL = displaces fluorescein MLL peptide from human menin; Fluorescence polarization, fluorescein-MLL peptide displacement from menin; FP activity change, % at 61.4 µM; 290,000 tested, under 10 active; AID 1766; inconclusive = falling polarisation curve, or a change in total fluorescence; inactive = total fluorescence flat and polarisation flat or rising; no compound was filed as active; the % refers to the polarisation; negative = inhibition;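 also: % of control where 0% means no effect; inhibitors lower the polarisation; unlabelled MLL peptide was the positive control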
gsp ag = agonists of gsp mutant (McCune-Albright syndrome) | gsp mutant cells, cAMP HTRF, 30 min; control for the full effect not named in the record | Potency, µM (top dose mostly 76.9 µM), inactives show top-dose activation (cAMP increase), most hits filed as activators | actives 0.13% (n = 340,000); active = well fitted activation curve with a large enough effect; inconclusive = small, poorly fitted or top-dose-only effect, or another doubt; inactive = no such curve, though single readings can be large or run the other way; cell line not stated here;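 also: phosphodiesterase inhibitor Ro 20-1724 added with compounds to block cAMP breakdown; potency is read from the fitted curve at half-maximal effect; nearly all actives have a fitted effect of over 60% in size; about a fifth of the inactives were tested at one dose only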
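Cells stably selected in G418 were plated at 2000/well, grown 16-24 hr, then given compounds in DMSO with the PDE inhibitor […] (300 uM solution added) for 30 min at 37C; cAMP was read by HTRF.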
gsp antagonist = gsp mutant antagonism; gsp-mutant cells, cAMP HTRF, 30 min; control for the full effect not named in the record; Potency, µM (doses to about 76.9 µM), without a hit: at the highest dose activity change, negative = inhibition, actives largely listed as inhibitors; actives 0.4% (n = 340,000); AID 624288; active = falling curve of any shape with a large fitted effect; inconclusive = falling curve, mostly with a smaller effect; inactive = flat or rising curve; cell line not stated here;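 also: intracellular cAMP measured with PDE inhibitor Ro 20-1724 present during compound exposure; potency is read from the fitted curve at half-maximal effect; % is scaled to controls: 0 for no effect and ±100 for the full control effect; nearly all actives have a fitted effect of over 65% in size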
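G418-selected cells were plated in DMEM/10% FBS for 16-24 h at 37C, then treated with compounds plus the PDE inhibitor […] (300 uM solution added) for 30 min at 37C. Intracellular cAMP was measured by HTRF after 30 min lysis at room temperature.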
TRPML1 ag = human mucolipin-1 channel agonism | Q9GZU1 | TRPML1-expressing cells, Ca2+ dye fluorescence, FDSS; host cell line not named in the record; reference of the full effect not given here | activation, % (concentration not given with the values) | actives 0.12% (n = 410,000); in the data active = activation above about 50%; inconclusive = about 30% to 50%; inactive = below about 30%; also: 0% is about no effect; the text of the record puts the active cut at 80%
Target sequence (Q9GZU1 whole entry, looked up): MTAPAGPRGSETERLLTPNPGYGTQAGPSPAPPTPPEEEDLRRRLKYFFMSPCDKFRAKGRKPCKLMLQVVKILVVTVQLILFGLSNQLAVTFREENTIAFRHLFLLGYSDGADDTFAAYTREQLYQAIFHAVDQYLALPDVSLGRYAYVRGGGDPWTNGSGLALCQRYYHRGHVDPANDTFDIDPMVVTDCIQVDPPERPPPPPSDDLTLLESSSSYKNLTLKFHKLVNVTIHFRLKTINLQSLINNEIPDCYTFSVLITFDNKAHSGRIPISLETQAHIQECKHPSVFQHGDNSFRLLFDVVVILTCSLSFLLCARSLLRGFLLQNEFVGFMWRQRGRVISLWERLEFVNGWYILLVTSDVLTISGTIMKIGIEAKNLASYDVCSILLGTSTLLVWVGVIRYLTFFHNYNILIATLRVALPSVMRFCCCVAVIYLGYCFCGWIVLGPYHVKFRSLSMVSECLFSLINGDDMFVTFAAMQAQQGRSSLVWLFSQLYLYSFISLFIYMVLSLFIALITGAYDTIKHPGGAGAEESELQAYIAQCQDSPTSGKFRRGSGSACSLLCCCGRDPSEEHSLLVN
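Tetracycline-induced TRPML1-DL cells are seeded and incubated overnight before loading with a no-wash Ca2+ dye and quencher. Agonist activity is taken from the 110 s fluorescence read following compound pin-transfer on an FDSS, before EC80 54-4 challenge.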
TRPML1 blocker = inhibitors of human TRPML1 channel | Q9GZU1 | TRPML1-inducible cells, Ca2+ dye fluorescence, FDSS; stronger effect = lower value; inhibition of EC80 agonist-evoked calcium signal | activity change, negative = inhibition, % (no concentration beside the values) | actives 0.02% (n = 390,000) | AID 624415; in the data active means activity change below about -50%; inconclusive means about -30% to -50%; inactive means above about -30%;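 also: stimulus is agonist 54-4 at its EC80 concentration; % is scaled to controls: 0 for no effect and ±100 for the full control effect; compound concentration not given in the record; the text of the record puts the active cut at -80%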
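TRPML1-DL cells, Tet-induced overnight (~16 h, 37 °C) at 1,500 cells/well, were loaded with Ca8 no-wash dye plus quencher for 45-90 min at room temperature. Compounds were pinned during FDSS kinetic reading; agonist 54-4 at EC80 (4 uM final) then added.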
Starred values were filed as active, the others as inactive; ? = inconclusive; . = no result given; & = joins results of further samples; [ ] = dose if it differs, or a comment.

SMILES	ClpP mod	Menin MLL FP FL	gsp ag	gsp antagonist	TRPML1 ag	TRPML1 blocker
CCc1cc(C(=O)N2CCc3c([nH]c4ccccc34)C2c2ccc(OC)cc2F)no1 (stereo not drawn)	.	-2.1	13%[15.4 µM]	3%	-0.4	4
C(#Cc1ccccc1)CN1CCCCC1	.	0.1	26%[15.4 µM]	.	0.4	19
COC(=O)c1cc(S(=O)(=O)N2CCN(c3ccc([N+](=O)[O-])cc3)CC2)c[nH]1	-1.0%	2.5	19%	2%	-1.0	76
CC(OC(=O)c1ccc([N+](=O)[O-])o1)C(=O)NC1CCCCC1C (stereo not drawn)	-2.1%	.	-62%[inhibitor]	11%	0.8	-5
CCOC(=O)C1(Cc2ccc(OC)cc2)CCN(C(=O)c2cncs2)CC1	.	3.8	3%[15.4 µM]	-6%	0.5	0
CCCNS(=O)(=O)c1ccc(CCC(=O)NCCc2ccc(OC)c(OC)c2)cc1	.	0.0	12%[15.4 µM]	3%	0.2	14
O=C(CCC1CCN(Cc2ccc(Cl)cc2)CC1)NC1CC1	-2.3%	-1.9	0%[15.4 µM]	-10%	0.9	30
CCOC(=O)c1c(CSc2ccccc2)n(C)c2ccc(O)c(CN3CCOCC3)c12	-0.7%	-1.2	-32%[inhibitor]	-9%	0.4	14
Cc1ccc(Cl)cc1N1CCN(C(=O)C(C)n2ncn3cccc3c2=O)CC1 (stereo not drawn)	-2.7%&1.1%	-3.2	-1%	-16%	-0.4&0.7	-2&0
FC(F)(F)c1ccccc1NC(=S)Nc1ccccc1	.	1.4	7%	7%	-0.1	38
COc1cc2c(cc1OC)C(C)N(C(=O)C1COc3ccccc3O1)CC2 (stereo not drawn)	-1.0%	0.9	11%	-6%	0.4	-1
CC(OC(=O)c1ccc(-n2cnnn2)cc1)C(=O)NCc1ccccc1 (stereo not drawn)	.	.	1%[15.4 µM]	6%	0.3	8
COc1ccc(S(=O)(=O)N2CCOCC2)cc1N(C)S(=O)(=O)c1ccc(C)cc1	1.2%	.	-28%[15.4 µM]	3%	-0.2	8
CC1CCCCN1C(=O)COC(=O)c1ccc(N2CCCC2=O)cc1 (stereo not drawn)	2.9%	.	8%	5%	-1.0	1
CCNc1nc(NCC)nc(SCC(C)=O)n1	.	-0.8	-15%[15.4 µM]	9%	-0.3	22
COc1cccc(Nc2nc(NCCO)c3ccccc3n2)c1	95%	-1.0	1%	3%	1.6	-14
CC1(C(=O)NCc2cccnc2)CCC(=O)N1CCc1ccccc1 (stereo not drawn)	1.2%	1.1	-13%	-10%	-1.0	-2
Cc1onc(-c2c(Cl)cccc2Cl)c1C(=O)ONC(=O)c1cc(C(F)(F)F)cc(C(F)(F)F)c1	-0.7%	-2.1	6%[15.4 µM]	-23%	-0.3	8
Cc1cccc2c1c(N=NC(N)=S)c(O)n2C1OC(CO)C(O)C(O)C1O (stereo not drawn)	1.4%	1.1	5%	-4%	-0.1	13
CCCn1c(NC(=O)c2ccc(C)cc2)nc2ccccc21	61%	3.5	-21%	-7%	-0.1	0
C(=N\Nc1ncnc2nc[nH]c12)/c1cccs1	-3.5%	-5.6	?	-12%	1.2	4
O=C(C1CCC(CNS(=O)(=O)c2ccccc2)CC1)N1CCCCC1 (stereo not drawn)	.	2.4	15%	5%	-0.2	13
COc1cc(C(=O)OCc2nc3ccsc3c(=O)[nH]2)c([N+](=O)[O-])cc1OC	-9.6%	.	-8%[15.4 µM]	9%	0.3	5
CO/N=C/C(C#N)=C/c1cc(C(=O)c2ccc(F)cc2)cn1C	.	-5.7	1%	-4%	0.5	-19
O=[N+]([O-])c1ccc(O)c(C2CCCCC2)c1	.	.	-4%	?	1.4	3
Cc1ccc(C(=O)COc2cc(C)nc3nncn23)cc1	1.5%	3.5	1%	4%	-0.7	24
N#CCNC1CC(=O)N(c2ccc(F)cc2)C1=O (stereo not drawn)	.	1.8	-29%	8%	0.6	-13
CCOCCn1c(CN2CCOCC2)nc2c1c(=O)[nH]c(=O)n2C	-1.3%	-0.8	-40%[inhibitor]	8%	-0.1	12
O=C(c1ccco1)N1CCN=C1SCc1c(F)cccc1Cl	0.9%	0.0	-18%	?	3.4	23
CCC1(c2ccc(F)cc2)NC(=O)N(CC(=O)NCc2ccccc2Cl)C1=O (stereo not drawn)	0.4%	0.1	14%	-2%	0.2	-18
O=C(COc1ccc(Cl)cc1)NNC(=O)c1ccccn1	0.8%	1.6	9%[15.4 µM]	8%	0.7	-21
COc1ccc(CN(C)CC(=O)Nc2cccc(S(=O)(=O)N(C)c3ccccc3)c2)c(OC)c1	-1.6%	.	-26%	-23%	0.9	-12
O=C1CCN(Cc2ccccc2)C=C1c1cccc(O)c1	-1.8%	.	.	-8%	-0.6	9
O=C(c1cccnc1)N1CCC(Oc2ccc(C(=O)N3CCCC(O)C3)cc2)CC1 (stereo not drawn)	.	-1.2	16%[15.4 µM]	8%	1.2	-10
COc1ccc(/C=N/n2c(=O)[nH]c3c([nH]c4ccc(C)cc43)c2=O)cc1CN1CCOCC1	?	5.2	2%	9%	1.0	-21
O=C(NCc1ccccc1Cl)c1cc2c(s1)-c1ccc(Cl)cc1SC2	4.8%	.	.	.	1.4	-13
CCOC(=O)C1CCCN(C(=O)COc2ccc(C(=O)c3ccccc3)cc2)C1 (stereo not drawn)	.	.	-19%[15.4 µM]	-15%	1.9	-5
COc1ccc2nc3n(c(=O)c2c1)-c1ncccc1C(=O)NC3C (stereo not drawn)	-3.5%	.	-2%	.	-0.4	-2
CCc1nc2c(c(=O)c3ccccc3n2C)c(=O)n1C1CCCCCC1	-2.3%	8.8	-3%	-4%	?	1
O=C1NC2(CCCCC2)C(=O)N1/N=C/c1ccc(O)cc1O	-2.3%	-4.6	14%	-10%	-0.6	5

Reformatted comma-delimited: part of the list above.
Structure,ClpP mod,Menin MLL FP FL,gsp ag,gsp antagonist,TRPML1 ag,TRPML1 blocker
O=C(C1CCC(CNS(=O)(=O)c2ccccc2)CC1)N1CCCCC1 (stereo not drawn),.,2.4,15%,5%,-0.2,13
COc1cc(C(=O)OCc2nc3ccsc3c(=O)[nH]2)c([N+](=O)[O-])cc1OC,-9.6%,.,-8%[15.4 µM],9%,0.3,5

Additional entries follow:
SMILES	ClpP mod	Menin MLL FP FL	gsp ag	gsp antagonist	TRPML1 ag	TRPML1 blocker
O=C1CSC(c2ccc(F)cc2)N1c1ccccc1F (stereo not drawn)	.	-7.7	10%	-4%	1.1	-1
COc1cc(NC(=O)c2cc(Br)cc(C)c2OC)ccc1NC(=O)C(C)C	.	-2.2	-2%	-15%	2.0	29
Cc1nc2nc(SCc3nc4ccccc4[nH]3)[nH]c2cc1Br	.	4.2	31%	5%	3.0	2
CC(C)(C)c1nc(N)nc(=O)[nH]1	0.4%	3.0	-6%	7%	-0.7	-3
CCCCc1nn2c(=O)cc(COC(=O)c3cccc(NC(=O)c4cccc(C)c4)c3)nc2s1	-2.6%	.	.	.	0.7	5
O=C(CSc1nnc(-c2ccncc2)n1Cc1ccco1)Nc1ccccc1F	.	1.0	18%	7%	0.1	4
CCCN(CC(=O)Nc1cccc(Br)c1)CC(=O)Nc1ccc(F)c(F)c1F	-2.5%	7.7	?	50µM*	-0.3	-11
CCc1ccc(CNC(=O)c2c3c(nc4ccccc24)C(=O)N(C2CCCCC2)C3)cc1	-21%	.	.	.	1.9	21
COc1ccc(Cl)cc1NC(=O)CN(C1CCCCC1)S(C)(=O)=O	0.9%	-5.8	1%	-19%	2.2	64
O=C(CSc1ncccn1)NCc1ccc(F)cc1	1.1%	4.8	22%	10%	-0.6	2
CCCCCSc1nnc(-c2cc(Br)ccc2N)c(=O)[nH]1	-1.8%	0.2	-7%	?	2.0	-14
COc1cccc(NC(=O)c2csnn2)c1	-3.6%	.	.	.	1.5	-5
Cc1cc(C)cc(C(=O)OCC(=O)NCc2cccs2)c1	-1.6%	0.4	?	13%	4.8	-12
O=c1[nH]c2ccccc2n1Cc1ccc(F)cc1	-0.7%	3.7	1%	-3%	-1.1	46
Cc1cccc(C(c2sc3nc(-c4ccco4)nn3c2O)N2CCN(c3ccccc3)CC2)c1 (stereo not drawn)	-0.1%	.	.	.	2.8	2
Cc1c(NC(=O)CN2C(=O)C(=O)c3ccccc32)c(=O)n(-c2ccccc2)n1C	.	4.8	16%[15.4 µM]	6%	1.1	-9
O=C1CN(C(=O)c2cc(Br)c(Br)s2)c2ccccc2N1	-3.2%	0.9	-49%[inhibitor]	16%	-0.7	5
COC(=O)C1=C(C)N(c2ccccc2)C(=S)NC1c1ccccc1C(F)(F)F (stereo not drawn)	1.2%	-3.3	-3%	-10%	1.1	-4
O=C1[C@@H]2C(c3ccc(F)cc3)=NO[C@@H]2C(=O)N1Cc1ccccc1	.	0.3	-2%[15.4 µM]	6%	1.8	15
COc1cc(C(=O)N2c3ccccc3CC2C)cc(OC)c1OC (stereo not drawn)	0.8%	8.7	-6%	-2%	0.6	0
O=C1/C(=C/c2cccs2)Sc2ccccc21	0.3%	9.8	-35%	3%	0.4	5
CN(Cc1ccccc1)C(=O)CN1C(=O)NC(C)(c2ccc(C(C)(C)C)cc2)C1=O (stereo not drawn)	.	-5.6	-33%[inhibitor]	10%	-0.3	12
CSCCC(NC(=O)c1ccccc1Br)C(=O)NCC(c1ccco1)N1CCCCC1 (stereo not drawn)	-1.5%	.	17%	8%	0.4	13
COCCCNC(=O)c1c(NC(=O)Cc2coc3cc(C)ccc23)sc2c1CCCC2	?	.	.	.	9.1	-16
CCN1C(=O)[C@H]2[C@@H](c3ccc(-c4ccc(F)cc4)cc3)N[C@@](C)(C(=O)OC)[C@H]2C1=O	-15%	.	2%	-8%	-0.5	8
O=C(O)CC(NC(=O)C12CC3CC(CC(C3)C1)C2)c1ccc(OC2CCCC2)cc1 (stereo not drawn)	.	2.1	10%[15.4 µM]	-17%	0.3	-17
Cc1cccc(OCc2nnc(SCC(=O)N(C(C)C)C(C)C)n2Cc2ccco2)c1C	-3.1%	5.2	-8%	7%	-0.3	-1
CC(C)(C)OC(=O)N[C@H]1C=C[C@H](OC(=O)CC(=O)OCC(F)(F)F)C1	0.5%	.	.	-11%	-0.4	15
CCN(CC)S(=O)(=O)c1ccc(/C=C/C(=O)Nc2ccc(N3CCOCC3)cc2)cc1	-0.3%	2.3	-8%	-11%	-0.7	-9
COc1ccc(CCNC(=O)C2CCCN2S(=O)(=O)c2cccc3nsnc23)cc1OC (stereo not drawn)	-1.7%	.	5%	7%	0.0	11
